# GIV-Gai inh = blocks GIV peptide binding to rat Galpha-i3. 210,000 compounds, 0.42% hits. Galpha-i3/FITC-GIV peptide fluorescence polarization, 90 min; active compounds read low; scaled: aluminum fluoride 0%, vehicle 100%. AID 1224905. percent of control (FP), % (no concentration beside the values);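 active = replicate mean at 85% of control or lower, very high polarization wells dropped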;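 also: wells of about 15 µL received 100 nL stock; the first replicate is given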
# Target sequence (P08753 whole entry, looked up): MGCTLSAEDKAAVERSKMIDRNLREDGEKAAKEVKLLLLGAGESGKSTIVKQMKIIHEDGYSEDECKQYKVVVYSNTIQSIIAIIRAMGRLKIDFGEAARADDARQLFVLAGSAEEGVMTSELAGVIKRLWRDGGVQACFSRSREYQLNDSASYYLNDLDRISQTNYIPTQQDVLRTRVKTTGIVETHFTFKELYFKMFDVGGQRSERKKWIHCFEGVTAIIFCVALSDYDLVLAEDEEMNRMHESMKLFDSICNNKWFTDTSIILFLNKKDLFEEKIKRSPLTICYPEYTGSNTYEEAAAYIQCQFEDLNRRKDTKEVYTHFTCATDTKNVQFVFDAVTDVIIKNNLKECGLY
# Sa growth inh = inhibitors of Staphylococcus aureus growth at 42 °C | AID 720641 | relative growth, % (concentration not given with the values) | 170,000 compounds, 0.53% hits | S. aureus RN4220 growth, OD600, 20 h; active compounds read low;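 active = growth at 42 °C up to 50% and 20 or more points under that at 30 °C, or under 10% at both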;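 also: 300 nL library stock went into each well; scaled to the means of positive and negative controls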
# HCMV UL50-53 inh = cytomegalovirus nuclear egress complex inhibition; HTRF UL50-UL53 interaction, normalized percent inhibition; inhibition, % (no concentration beside the values); 190,000 compounds, 0.15% hits;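 active = both replicates at 50% or more, plus weaker picks with an unusually low signal ratio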;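 also: stock transfer was 100 nL into about 20 µL; 0% = negative control wells and 100% = wells with untagged competitor protein; inactives centre near -12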
# Sa growth inh second temp = also measured in Sa growth inh; calls as there; relative growth, %; measured here: growth at 30 °C;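 optical density after 20 h as mean of two plates; 100% = untreated growth and lower means inhibition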
# * = called active by the depositor; . = not tested or not shown; & = joins results of further samples. Only part of the results is shown (hit frequency here may not be typical).
SMILES,GIV-Gai inh,Sa growth inh,Sa growth inh second temp,HCMV UL50-53 inh
CCCc1nc(C)cc(N2CCN(C)CC2)n1,102.7&102.7,99.2,97.1,3.3&-2.5
Cc1nn(Cc2ccccc2)c(C)c1C(=O)OCC(=O)NCc1ccco1,.,96.8,94.7,-13.4
Cc1ccccc1CNCCc1c[nH]c2ccccc12,.,81.1,87.0,6.2
CC(C)CP(=O)(O)c1ccccc1,100.9,104.2,85.2,-12.1
CCc1cc2c(OC(=O)N(C)C)ncnc2s1,99.3,101.3,89.2,-14.3
O=c1c2ccccc2nc(/C=C\c2cccc(Br)c2)n1-c1ccc(O)cc1,102.8,102.7,96.1,23.1
O=C(Nc1ccc(F)c(Cl)c1)N(Cc1ccc2c(c1)OCO2)C1CCN(Cc2ccccc2)CC1,99.5,118.0,83.1,.
Cc1ccccc1CS(=O)(=O)Cc1ccc(C(=O)N2CCC3(CC2)OCCO3)o1,104.0,111.1,93.3,.
CNC(=O)Oc1ccc(-c2nc(CSc3ccc(Cl)cc3)cs2)cc1,98.1,51.0,49.1,-11.1
O=P1(Nc2ccc(Cl)cc2)CC=CC1,103.2,101.0,92.1,-8.6
Cc1cccc(-c2nc(CN3C(=O)CN=C(c4ccccc4)c4ccccc43)c(C)o2)c1,98.4,60.2,65.7,-28.8
CN1CCN(P2(=S)C3=C(CCC3)C3=C(CCC3)N2c2ccccc2)CC1 (stereo unspecified),.,103.3,93.7,-16.9
O=C1NC(=O)C(=Cc2ccc(OCCOc3ccc([N+](=O)[O-])cc3)cc2)C(=O)N1,100.7,.,.,-30.7
NC(CO)Cc1ccccc1 (stereo unspecified),104.8,98.6,102.0,2.0
S=C(Nc1ccccc1)N1CCCCC1c1cccnc1 (stereo unspecified),102.0,108.6,91.9,20.1
Cn1c(=O)c2c(ncn2CC(=O)Nc2ccc(C#N)c(Cl)c2)n(C)c1=O,103.4,90.0,83.4,-1.3
CN(C)c1ccc(C=C2C(=O)NC(=S)NC2=O)cc1,101.7,75.3,35.2,-2.5
CSc1cccc(NC(=O)CCc2nc(C3=CCN(C)CC3)no2)c1,101.8,88.1,93.5,-13.0
COc1ccc(C2(CN)CCOCC2)cc1,101.4,114.3,95.9,0.9
CCNCC(O)c1cccc(O)c1 (stereo unspecified),.,90.7,88.7,-14.3&-27.7
COC(=O)c1ccc(NC(=O)c2cccn(Cc3ccccc3C)c2=O)cc1,100.8,92.9,84.1,.
CCN(CC(=O)c1ccc(C#N)cc1)C1CCCCC1,.,76.0,90.8,-7.8
O=C1Nc2ccc(Cl)cc2C(c2ccccc2Cl)=NC1O (stereo unspecified),.,83.1,82.3,-77.8
O=C(NCc1cccnc1)c1cc2cccnc2n(Cc2ccc(F)cc2)c1=O,108.4,.,.,-26.1
Cc1cc(NC(=O)c2cccn(Cc3cccc([N+](=O)[O-])c3)c2=O)no1,99.8,87.7,92.0,.
# (continued)
SMILES,GIV-Gai inh,Sa growth inh,Sa growth inh second temp,HCMV UL50-53 inh
Cc1[nH]c(=O)n(C(C)(C)C)c(=O)c1Cl,96.0,100.2,74.5,-16.2
CCNCC(O)c1cccc(OC(=O)c2ccccc2C)c1 (stereo unspecified),104.4,91.2,90.7,.
CC12CN3CC(C)(C1O)C(O)C(C)(C3)C2O (stereo unspecified),.,85.0,96.2,3.9
Cc1cc(C#N)c(C)n1-c1ccc(Cl)cc1C(=O)c1ccccc1Cl,.,87.5,91.7,1.2
N=c1c[n+](CC23CC4CC(CC(C4)C2)C3)[n-]o1,103.4,81.3,86.8,.
CCC12CCCN3CCC4(c5ccc(OC)c(O)c5N(C(C)=O)C4CC1)C32 (stereo unspecified),.,110.0,80.2,-3.8
Nc1cc(Cl)ccc1Cl,.,103.4,94.3,-29.7
CCOC(C(=O)O)(c1ccccc1)c1ccccc1,95.8,93.3,97.2,-3.5
CC(N)c1cccnc1 (stereo unspecified),.,79.8,95.2,-31.1
COC(=O)c1cncn1C(C)c1ccccc1 (stereo unspecified),.,119.9,96.4,15.8
CC(C)[C@]12O[C@H]1[C@@H]1O[C@]13[C@]1(O[C@H]1C[C@H]1C4=C(CC[C@@]13C)C(=O)OC4)[C@@H]2O,.,94.8,90.7,9.5
C=CCC1(CC=C)C(=O)N(C)C(=O)N(C)C1=O,107.0,94.8,91.8,-11.1
N#Cc1c(Cl)nc(N2CCOCC2)c(Cl)c1Cl,98.6,111.6,91.1,-6.5
COc1ccc2c(c1)O/C(=C\c1cccc(OC(=O)N(C)C)c1)C2=O,107.8,83.2,36.9,-65.2
Cc1cc2c(cc1S(=O)(=O)N1CC3CC(C1)c1cccc(=O)n1C3)OCC(=O)N2 (stereo unspecified),110.9,.,.,-3.3
O=c1c2ccccc2ncn1CN1CC=C(c2ccccc2)CC1,.,81.0,88.1,-45.1
CCN(CC)CCc1c(C)c2ccc(O)cc2oc1=O,.,74.7,97.1,1.0
O=C1NC(=O)C(C2(O)C(=O)c3ccccc3C2=O)C(=O)N1,.,98.4,92.3,65.3
Cn1cccc1CNCCc1ccccc1,107.0,116.1,92.2,2.0

# Entries listed so far that have nitrogen in an aromatic ring:
SMILES,GIV-Gai inh,Sa growth inh,Sa growth inh second temp,HCMV UL50-53 inh
CCCc1nc(C)cc(N2CCN(C)CC2)n1,102.7&102.7,99.2,97.1,3.3&-2.5
Cc1nn(Cc2ccccc2)c(C)c1C(=O)OCC(=O)NCc1ccco1,.,96.8,94.7,-13.4
Cc1ccccc1CNCCc1c[nH]c2ccccc12,.,81.1,87.0,6.2
CCc1cc2c(OC(=O)N(C)C)ncnc2s1,99.3,101.3,89.2,-14.3
O=c1c2ccccc2nc(/C=C\c2cccc(Br)c2)n1-c1ccc(O)cc1,102.8,102.7,96.1,23.1
CNC(=O)Oc1ccc(-c2nc(CSc3ccc(Cl)cc3)cs2)cc1,98.1,51.0,49.1,-11.1
Cc1cccc(-c2nc(CN3C(=O)CN=C(c4ccccc4)c4ccccc43)c(C)o2)c1,98.4,60.2,65.7,-28.8
S=C(Nc1ccccc1)N1CCCCC1c1cccnc1 (stereo unspecified),102.0,108.6,91.9,20.1
Cn1c(=O)c2c(ncn2CC(=O)Nc2ccc(C#N)c(Cl)c2)n(C)c1=O,103.4,90.0,83.4,-1.3
CSc1cccc(NC(=O)CCc2nc(C3=CCN(C)CC3)no2)c1,101.8,88.1,93.5,-13.0
COC(=O)c1ccc(NC(=O)c2cccn(Cc3ccccc3C)c2=O)cc1,100.8,92.9,84.1,.
O=C(NCc1cccnc1)c1cc2cccnc2n(Cc2ccc(F)cc2)c1=O,108.4,.,.,-26.1
Cc1cc(NC(=O)c2cccn(Cc3cccc([N+](=O)[O-])c3)c2=O)no1,99.8,87.7,92.0,.
Cc1[nH]c(=O)n(C(C)(C)C)c(=O)c1Cl,96.0,100.2,74.5,-16.2
Cc1cc(C#N)c(C)n1-c1ccc(Cl)cc1C(=O)c1ccccc1Cl,.,87.5,91.7,1.2
N=c1c[n+](CC23CC4CC(CC(C4)C2)C3)[n-]o1,103.4,81.3,86.8,.
CC(N)c1cccnc1 (stereo unspecified),.,79.8,95.2,-31.1
COC(=O)c1cncn1C(C)c1ccccc1 (stereo unspecified),.,119.9,96.4,15.8
N#Cc1c(Cl)nc(N2CCOCC2)c(Cl)c1Cl,98.6,111.6,91.1,-6.5
Cc1cc2c(cc1S(=O)(=O)N1CC3CC(C1)c1cccc(=O)n1C3)OCC(=O)N2 (stereo unspecified),110.9,.,.,-3.3
O=c1c2ccccc2ncn1CN1CC=C(c2ccccc2)CC1,.,81.0,88.1,-45.1
Cn1cccc1CNCCc1ccccc1,107.0,116.1,92.2,2.0
